Screening data from PubChem.
SARS PLpro yeast: blocks SARS-CoV papain-like protease in a yeast assay. actives 0.19% (n = 330,000). Potency, µM (titrated, usually from 32.9 µM), inactives show at the top dose activity, positive = growth rescue. AID 485353. S. cerevisiae expressing SARS-CoV PLpro, growth rescue; control for the full effect not named in the record; active means well fitted rising curve with a large enough effect; inconclusive means small, poorly fitted or top-dose-only effect; inactive means no such curve, though single readings can be large or run the other way; note: 0% is about no effect; nearly all actives have a fitted effect of over 55% in size; growth read by luminescence after 48 h
NS1 function inh: blocks influenza NS1 protein function; S. cerevisiae slowed by influenza A NS1, growth recovery by OD600; Potency, µM (highest dose often 46.1 µM), for inactives: at the highest dose activity, positive = more growth; actives 0.4% (n = 270,000); AID 2326; active means well fitted rising curve with a large enough effect; inconclusive means small, poorly fitted or top-dose-only effect; inactive means no such curve, though single readings can be large or run the other way; note: nearly all actives have a fitted effect of over 50% in size
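In this qHTS, NS1 from influenza A is expressed in budding yeast, where it slows growth. Cells are switched from glucose to 2% galactose medium (pH 6.0, -URA), treated with compound, and growth recovery is read at OD600.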
Cruzain inh noDet: inhibitors of Trypanosoma cruzi cruzain without detergent; P25779; purified cruzain, Z-FR-AMC fluorescence, no detergent; Potency, µM, for the others: max response, negative = inhibition, usual class: inhibitors; actives 2.3% (n = 200,000); AID 1476;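 note: plate controls were enzyme without inhibitor for no effect and buffer without enzyme for full effect; nearly all actives have a fitted effect of over 40% in size; top concentration of the series not given in the record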
Target sequence (P25779 123-467 limits assumed): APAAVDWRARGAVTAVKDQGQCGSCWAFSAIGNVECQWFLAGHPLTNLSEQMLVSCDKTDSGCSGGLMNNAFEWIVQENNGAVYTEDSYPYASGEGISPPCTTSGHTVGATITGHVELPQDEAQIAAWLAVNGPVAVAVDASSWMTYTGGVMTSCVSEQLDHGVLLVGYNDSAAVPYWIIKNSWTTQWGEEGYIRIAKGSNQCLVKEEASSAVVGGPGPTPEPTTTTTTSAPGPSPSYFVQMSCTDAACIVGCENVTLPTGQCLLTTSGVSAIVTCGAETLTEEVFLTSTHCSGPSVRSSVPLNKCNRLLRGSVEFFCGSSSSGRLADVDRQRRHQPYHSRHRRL
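Detergent-free condition (0.00005% Triton X-100) in acetate buffer pH 5.5 with DTT. 1.5 nM enzyme and compound were pre-mixed 15 min, then 2 uM Z-FR-AMC substrate added; reaction progress from fluorescence change between first and third reads (60 s).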
Lassa entry inh: Lassa virus entry inhibition; Lassa virus pseudotype entry inhibition, cell reporter; control for the full effect not named in the record; Potency, µM (series often up to 37.9 µM), for inactives: at the top dose activity change, negative = inhibition, actives largely listed as inhibitors; actives 1.2% (n = 300,000); AID 540256; active means well fitted inhibition curve with a large enough effect; inconclusive means small, poorly fitted or top-dose-only effect, or effect the other way; inactive means flat fitted curve, though single readings scatter; tested in HEK293 cells; note: % is set by controls: 0 for no effect and ±100 for the full control effect; nearly all actives have a fitted effect of over 50% in size; luciferase read-out
2A StopGo: lowers the luciferase signal of an FMDV 2A StopGo reporter; AID 1159524; actives 1.2% (n = 410,000); Potency, µM (doses to about 57.9 µM), without a hit: at the highest dose signal change, negative = less light; human cells with a luciferase reporter of 2A StopGo recoding; control for the full effect not named in the record; active = well fitted falling curve with a large enough effect; inconclusive = small, poorly fitted or top-dose-only effect; inactive = no such curve, though single readings can be large or run the other way; tested in HEK293T cells; note: % is set by controls: 0 for no effect and ±100 for the full control effect; nearly all actives have a fitted effect of over 45% in size; luciferase light after 4 h
MARV entry inh: inhibitors of Marburg virus binding or cell entry | Marburg virus pseudotyped entry inhibition, cell reporter; control for the full effect not named in the record; about a third of the inactives were read at about 46 µM | Potency, µM (highest dose often 37.8 µM), for inactives: top-dose activity change, negative = inhibition, hits mostly inhibitors | actives 1.8% (n = 300,000) | AID 540276; active = well fitted inhibition curve with a large enough effect; inconclusive = small, poorly fitted or top-dose-only effect, or effect the other way; inactive = flat fitted curve, though single readings scatter; tested in HEK293 cells; about a fifth of its hits are not listed in these tables; note: % is set by controls: 0 for no effect and ±100 for the full control effect; luciferase read-out
Cruzain Triton: cruzain (T. cruzi) inhibition with detergent; purified cruzain, Z-FR-AMC fluorescence, 0.01% Triton; actives 0.43% (n = 200,000); P25779; Potency, µM, inactives show max response, negative = inhibition, most hits filed as inhibitors;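 note: plate controls were neutral wells for no effect and buffer without enzyme for full effect; nearly all actives have a fitted effect of over 40% in size; top concentration of the series not given in the record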
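Purified cruzain (1.5 nM final) was preincubated with compounds for 15 min at room temperature in 100 mM sodium acetate pH 5.5, 5 mM DTT, 0.01% Triton X-100. Reaction started with 2 uM Z-FR-AMC; AMC fluorescence change over 60 s gave activity.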
RE007 growth inh: less growth of the S. pombe RE007 Vpr strain; S. pombe RE007 Vpr strain, BacTiter-Glo ATP luminescence, 24 h; control for the full effect not named in the record; Potency, µM (highest dose often 92.2 µM), without a hit: at the top dose activity change, negative = less growth; actives 0.21% (n = 360,000); AID 651644; active = well fitted falling curve with a large enough effect; inconclusive = small, poorly fitted or top-dose-only effect; inactive = no such curve, though single readings can be large or run the other way;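 note: % is set by controls: 0 for no effect and ±100 for the full control effect; nearly all actives have a fitted effect of over 50% in size; the assay follows cell death caused by Vpr and the record does not say whether a fall means rescue or toxicity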
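Fission yeast RE007 carrying one integrated HIV-1 vpr copy, seeded at OD 0.01 in PMG+AL medium with 23 nL pinned compound. Grown 24 h at 30 degrees; viability read by BacTiter-Glo luminescence after 5 min.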
An asterisk follows results filed as active; u = inconclusive; x = no result given; & = joins results of further samples; [ ] = another dose, or the depositor's remark. Unless noted, calls come from the whole dose curve; as a rule, active = well fitted curve in the direction sought with a large enough effect; inconclusive = small, poorly fitted or top-dose-only effect, or another doubt; inactive = no such curve, though single readings can be large; an effect the other way counts as inactive or inconclusive. Potency is the fitted concentration of half-maximal effect.

SMILES | SARS PLpro yeast | NS1 function inh | Cruzain inh noDet | Lassa entry inh | 2A StopGo | MARV entry inh | Cruzain Triton | RE007 growth inh
Cc1ccc(-c2nnc(SCC(=O)N3CCCc4ccccc43)n2N)cc1 | 3% | -8% | 2% | 1% | -21% | 1% | -1.2% | -12%
O=C(COC(=O)c1c[nH]c2ccccc12)Nc1ccc([N+](=O)[O-])cc1 | 6% | x | x | 9% | -8% | 3% | x | -23%
COc1ccc(NC(=O)C2C3C=CC4(O3)C2C(=O)N(CCN2CCCCC2)C4C(=O)NC2CCCCC2)cc1 (stereo not given) | 0% | -9% | x | x | 5% | -20%[46.1 µM] | x | 11%
CC1CC(C)CN(C(=O)C2CCCN(c3ncnc4c3nc3n4CCCCC3)C2)C1 (stereo not given) | -1% | -25% | x | u | -27% | u | x | 5%
CC1CCCC(C)N1C(=O)Nc1cccc(Cl)c1 (stereo not given) | 0% | -8% | 5% | 1% | -8% | 3% | 5.9% | -5%
COc1ccc(S(=O)(=O)N(C)C)cc1NCC(=O)Nc1ccc(Br)cc1F | 14% | 3% | -11% | 1% | -26% | -26% | -3.3% | -2%
CCOc1ccc(NC(=O)c2cccnc2Cl)c([N+](=O)[O-])c1 | -13% | -3% | u | 2% | 5% | u | -2.3% | 1%
Cc1ccc(C(c2nnnn2CC2CCCO2)N2CCN(C)CC2)cc1 (stereo not given) | 0% | -1% | x | x | -12% | x | x | -13%
CCCCn1c(N)c(N(CCOC)C(=O)c2cccc(S(=O)(=O)N3CCCCCC3)c2)c(=O)[nH]c1=O | -7% | x | x | -30% | -16% | -8% | x | 2%
CCn1cc(C(=O)C(F)(F)F)c2ccccc21 | 1% | 5% | 2% | -2% | 3% | -6% | 1.1% | 0%
CC1CC2(C)C(=CC1=O)CCC1C3CCC(C)(O)C3(C)CC3OC312 (stereo not given) | x | x | x | -5%[46.1 µM] | -5% | -7%[46.1 µM] | x | -9%
CCCN1CNC(=S)N(Cc2ccccc2)C1 | 8% | 9% | 0% | -1% | -10% | 2% | -1.9% | 5%
COc1ccccc1-n1cnc2cc(C(=O)NCCCN3CCOCC3)ccc21 | 6% | -1% | -10% | -1% | -20% | -23% | 4.2% | 1%
S=C(Nc1ccc(Nc2ccccc2)cc1)NN1CCOCC1 | 1% | -4% | x | -7% | -9% | 2% | x | -7%
FC(F)(F)c1cc(-c2ccco2)nc(N2CCN(c3ccccc3)CC2)n1 | 9% | 2% | -12% | -1% | -9% | -7% | -3.0% | 9%
CC(=O)c1c(C(=O)O)[nH]c(C(=O)O)c1C | 0% | x | x | 4% | 2% | 2%[46.1 µM] | x | 4%
CCCCSCCCNC(=O)c1cn(C)c2ccc(S(=O)(=O)N3CCCC3)cc2c1=O | 4% | 14% | -7% | u | 14%&8% | 18%&18%[46.1 µM] | -2.0% | 7%
COCCCNC(=O)CNC(=S)N(Cc1ccccc1)Cc1cccnc1 | 1% | x | x | 3%[46.1 µM] | -12% | 7%[46.1 µM] | x | 3%
CCC1(C)N(O)C(C)(C)C(c2ccc(OC)cc2)=[N+]1[O-] (stereo not given) | 5% | 8% | -7% | -17% | x | 16% | -0.6% | 6%
Cc1ccc2c(CC(=O)O)coc2c1 | -6% | -48% | -6% | 12% | 3% | 1% | 3.2% | 0%
CCN(CC(=O)Nc1ccccc1OC)CC(=O)Nc1ccccc1C(F)(F)F | 1% | x | x | u | -24% | -16% | x | -2%
COCCCNC(=O)C1CCN(c2cc(C)nc3c(-c4ccc(OC)c(OC)c4)c(C)nn23)CC1 | x | x | 17% | 1%[46.1 µM] | 0% | 11%[46.1 µM] | 0.5% | x
COc1ccc(Cn2c(SCC(=O)N3CCN(c4ccc(F)cc4)CC3)nc3ccccc32)cc1 | x | x | -9% | x | 0% | -29%[46.1 µM] | -2.4% | x
O=C(CCNc1cc(Cl)cc(Cl)c1)c1ccco1 | -18% | -39% | 2% | 3% | -4% | 16%[46.1 µM] | -4.7% | u
COc1ccc(N2C(=O)C3CCCN3C2=O)cc1 (stereo not given) | 1% | 1% | 3% | u | 5% | 9% | 3.3% | -7%
COC(=O)[C@@H](Cc1ccccc1)NC(=O)[C@H]1CCC(=O)N1C(=O)OCc1ccccc1 | -11% | 2% | x | x | 9% | x | x | 7%
Cc1cc2[nH]c(=O)c(=O)[nH]c2cc1S(=O)(=O)NC1CCCCC1C (stereo not given) | 6% | 15% | x | x | 11% | x | x | -10%
Cc1ccc(N(CC(=O)NCCc2ccc(Cl)cc2)S(=O)(=O)N(C)C)cc1 | x | x | u | -9%[46.1 µM] | 0% | u | -4.9% | x
COc1ccc(-c2noc(-c3ccoc3C)n2)cc1 | 15% | -8% | x | -21% | 3% | u | x | -9%
CN(CC(=O)Nc1ccccc1-c1ccccc1)C1CCCCC1 | -3% | -3% | -6% | -17% | u | u | -0.9% | -13%
COc1ccc(Cl)cc1NC(=O)CN(C)C(=O)CCCc1c[nH]c2ccccc12 | -8% | 11% | x | 9%[46.1 µM] | 0% | u | x | -4%
COC(=O)c1sc(NC(=O)c2c(OC)cccc2OC)c(C#N)c1C | -1% | 0% | x | x | -24% | x | x | 3%
CCOC(=O)CC(=O)CSc1nnc2sc3ccccc3n12 | -4% | 23% | 4% | 4% | -4% | 22%&22%[46.1 µM] | 2.4% | 6%
Cc1ccccc1-c1n[nH]c(=S)o1 | -6% | -211% | 5% | 12% | -8% | 3%[46.1 µM] | 1.4% | -2%
Brc1ccc(-c2ccc(/C=N/Nc3nc(N4CCOCC4)nc(N4CCOCC4)n3)o2)cc1 | -1% | x | x | -12%[46.1 µM] | u | 4µM* | x | 0%
Cc1ccc(NS(=O)(=O)c2ccc3c(c2)NC(=O)CO3)cc1Cl | -19% | 25% | x | x | 61%[activator] | x | x | -13%
Cc1ccc(N(C)S(=O)(=O)c2cc(-c3cnc(C4CC4)o3)ccc2C)cc1 | 6% | -2% | x | u | u | u | x | -2%
CCC1=Nc2cc(C(=O)NCc3ccc(C)cc3)ccc2Sc2ccc(C)cc21 | x | x | u | -28%[46.1 µM] | -9% | x | -2.6% | x
CCOc1ccc(NS(=O)(=O)CC23CCC(CC2=O)C3(C)C)cc1 (stereo not given) | -1% | -3% | -3% | -4% | -1% | u | 1.7% | 1%
N#Cc1cccc(NC(=O)CCN2C(=O)C3CCCCC3C2=O)c1 (stereo not given) | 1% | x | x | u | 1% | 8% | x | -9%
CCOC(=O)c1c(NC(=O)COC(=O)c2cc(OC)c(OC)cc2[N+](=O)[O-])sc(C)c1C | -3% | -8% | -17% | 5% | -19% | -4% | -5.7% | 10%
S=c1[nH]nc(/C=C/c2ccccc2)o1 | 3% | -7% | x | 0% | 6% | 12% | x | 0%
Cc1ccc(C)c(NC(=O)CCN2C(=O)c3ccccc3C2=O)c1 | 0% | 6% | x | x | -16% | x | x | 7%
Cc1cc(C)cc(NC(=O)CSc2oc(-c3ccccc3)nc2S(=O)(=O)c2ccccc2)c1 | x | x | -6% | -1%[46.1 µM] | -17% | u | -4.3% | x
COc1ccc(N2CCN(C(=O)CC(NC(N)=O)c3cccc(Oc4ccccc4)c3)CC2)cc1 (stereo not given) | -1% | 8% | u | -14% | -22% | 15% | -6.8% | 16%
COc1cc(C2C(C#N)=C(N)N(N(C)C)C3=C2C(=O)CCC3)ccc1O (stereo not given) | 2% | 7% | x | 2%[46.1 µM] | -3% | u | x | -9%
Cc1cc(C)n2nc(CC#N)c(C#N)c2n1 | 0% | x | x | -12% | 13% | 23%[46.1 µM] | x | -14%
C=CCn1c(SCC(=O)Nc2cccc(S(N)(=O)=O)c2)nc2sc(C)c(C)c2c1=O | 5% | x | x | u | -23% | u | x | -30%
O=C(NN1CCOCC1)c1ccc(Br)cc1 | x | x | x | u | -20% | 2% | x | -2%
Cn1nccc1C(=O)N1CCN(c2ncccn2)CC1 | 1% | 6% | x | 17% | -17% | u | x | 16%
Additional structures follow.
SMILES | SARS PLpro yeast | NS1 function inh | Cruzain inh noDet | Lassa entry inh | 2A StopGo | MARV entry inh | Cruzain Triton | RE007 growth inh
CCOc1ccc(C(C)=O)cc1Cn1c(=O)oc2ccccc21 | -4% | -2% | x | x | u | x | x | 15%
COc1cccc(CSc2nc3sc(C)c(C)c3c(=O)n2Cc2ccco2)c1 | 5% | 4% | 25µM* | u | -18% | 15µM* | -2.9% | -4%
O=C(Oc1cccc2ccccc12)c1cc(Cl)nc2ccccc12 | -10% | -5% | -26% | 0% | -24% | 6%[46.1 µM] | -7.1% | -6%
CCc1ccc(-c2[nH]nc3nc(-c4ccc(OC)cc4)cc(C(=O)NCCc4ccc(OC)c(OC)c4)c23)cc1 | x | x | 8% | 8%[46.1 µM] | u | x | -1.8% | x
CC(=O)Nc1nc(C)c(-c2csc(Nc3ccc(O)cc3)n2)s1 | 3% | 3.2µM* | 13µM* | u | -8% | 4.6µM* | -28% | 10%
C=CCn1c(Cc2nc3ccc(Cl)cc3[nH]2)n[nH]c1=S | 3% | u | -1% | 2% | 1% | -8% | -2.1% | 10%
COC(=O)c1ccc(S(=O)(=O)N2CCCN(Cc3cccc(Br)c3F)CC2)n1C | -2% | -3% | x | x | u | x | x | -8%
O=S(=O)(NCC1NCCc2ccccc21)c1ccccc1 (stereo not given) | 1% | x | x | 8%[46.1 µM] | 32%[activator] | u | x | -16%
Cc1ccc(C(=O)C2=C(O)C(=O)N(Cc3cccnc3)C2c2ccc(OC(C)C)cc2)o1 (stereo not given) | -1% | -49% | x | x | -1% | x | x | 4%
COCCCN(C(=O)CCSc1ccc(F)cc1)c1c(N)n(Cc2ccccc2)c(=O)[nH]c1=O | 5% | x | x | -2% | -14% | -21% | x | 4%
CN1CC(=O)N/C1=N\C(=O)Nc1ccc(O)cc1 | -3% | 8% | x | x | -3% | x | x | 0%
CCOc1ccc(S(=O)(=O)Nc2cc(Cl)ccc2O)cc1 | -23% | -71% | -5% | u | 0% | u | -7.5% | 3%
